# ID4 SMM: binds human ID4 protein on microarray; small molecule microarray, Flag-ID4 binding, fluorescence F/B; calls only; hit rate 1.2% among 31,000; AID 624137;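 active = spot signal over background at p below 0.07 in all four prints; compounds were printed on slides so no solution concentration is given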;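 note: a binder raises fluorescence above local background on the spot; about 2 pmol printed per array spot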
# Target sequence (P47928 whole entry, looked up): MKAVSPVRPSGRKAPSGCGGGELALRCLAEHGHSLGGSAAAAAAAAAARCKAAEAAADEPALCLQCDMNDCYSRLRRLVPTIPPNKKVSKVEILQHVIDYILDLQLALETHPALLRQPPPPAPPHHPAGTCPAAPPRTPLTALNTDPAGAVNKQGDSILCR
# Calls only; i = inactive. This is a subset; rates above refer to the full screens.
# Preview:
SMILES	ID4 SMM
CC(=O)N(C)C[C@@H]1OCc2ccccc2-c2c(n(C)c3ccccc23)C(=O)N([C@@H](C)CO)C[C@H]1C	i
C[C@@H]1CN([C@H](C)CO)C(=O)c2cc(/C=C/c3ccccc3)cnc2O[C@@H]1CN(C)C(=O)CN(C)C	i

# All compounds of this part (from the top)
SMILES	ID4 SMM
CC(=O)N(C)C[C@@H]1OCc2ccccc2-c2c(n(C)c3ccccc23)C(=O)N([C@@H](C)CO)C[C@H]1C	i
C[C@@H]1CN([C@H](C)CO)C(=O)c2cc(/C=C/c3ccccc3)cnc2O[C@@H]1CN(C)C(=O)CN(C)C	i
CC(C)(C)c1ccc(C(=O)N2CCN(c3ccc([N+](=O)[O-])c(NCc4cccnc4)c3)CC2)cc1	i
COc1ccc(C(=O)CSc2nc3nc(C)cc(C)c3c(=O)[nH]2)cc1OC	i
C[C@H](CO)N1C[C@H](C)[C@@H](CN(C)C(=O)Nc2ccc3c(c2)OCO3)OCc2ccccc2-c2ccccc2C1=O	i
C[C@@H]1CN([C@H](C)CO)C(=O)c2cc(C#Cc3ccccc3)cnc2O[C@@H]1CN(C)C(=O)C1CC1	i
O=C1/C(=C/c2ccc(N3CCOCC3)cc2)CCC1C1CCCC1 (centres undefined)	i
CN(C)c1ccc2c(c1)[C@H]1C[C@@H](CC(=O)NCc3ccccn3)O[C@@H](CO)[C@H]1O2	i
Cc1cccc(N(CC(=O)NC2CCCCCC2)S(C)(=O)=O)c1C	i
C[C@H]1CN([C@@H](C)CO)S(=O)(=O)c2ccc(C#CCC3CCCC3)cc2O[C@@H]1CN(C)C	i
O=C(CN1C(=O)c2ccccc2C1=O)Nc1ccc(NC(=O)c2ccco2)cc1	i
C[C@@H]1CN([C@H](C)CO)S(=O)(=O)c2ccc(-c3ccccc3F)cc2O[C@@H]1CN(C)C(=O)C1CC1	i
COc1ccc(Nc2nc(N)nc(CSCCO)n2)cc1	i
O=C(NCc1ccco1)c1cc(-c2ccccc2)on1	i
O=[N+]([O-])c1ccccc1S(=O)(=O)Nc1cccc2cccnc12	i

# Looked up by compound from the entries so far (6):
SMILES	ID4 SMM
CC(=O)N(C)C[C@@H]1OCc2ccccc2-c2c(n(C)c3ccccc23)C(=O)N([C@@H](C)CO)C[C@H]1C	i
C[C@H](CO)N1C[C@H](C)[C@@H](CN(C)C(=O)Nc2ccc3c(c2)OCO3)OCc2ccccc2-c2ccccc2C1=O	i
O=C(NCc1ccco1)c1cc(-c2ccccc2)on1	i
O=[N+]([O-])c1ccccc1S(=O)(=O)Nc1cccc2cccnc12	i
C[C@@H]1CN([C@H](C)CO)C(=O)c2cc(C#Cc3ccccc3)cnc2O[C@@H]1CN(C)C(=O)C1CC1	i
O=C1/C(=C/c2ccc(N3CCOCC3)cc2)CCC1C1CCCC1 (centres undefined)	i

# Returning to the listing with the 4 entries that preceded the break.
SMILES	ID4 SMM
C[C@@H]1CN([C@H](C)CO)S(=O)(=O)c2ccc(-c3ccccc3F)cc2O[C@@H]1CN(C)C(=O)C1CC1	i
COc1ccc(Nc2nc(N)nc(CSCCO)n2)cc1	i
O=C(NCc1ccco1)c1cc(-c2ccccc2)on1	i
O=[N+]([O-])c1ccccc1S(=O)(=O)Nc1cccc2cccnc12	i
COc1ccc(-c2cnc3c(c2)C(=O)N([C@H](C)CO)C[C@H](C)[C@@H](CN(C)C(=O)CN(C)C)O3)cc1	i
COc1ccccc1NC(=O)C1CCCN(S(=O)(=O)c2ccc(Br)cc2)C1 (centres undefined)	i
COCC(=O)Nc1ccc2c(c1)[C@@H]1C[C@H](CC(=O)N3CCN(C)CC3)O[C@H](CO)[C@@H]1O2	i
CC(Sc1ncnc2sc(-c3ccccc3)cc12)C(=O)Nc1ccccc1C(F)(F)F (centres undefined)	i
COc1ccc(OCC(=O)Nc2cc(OC)ccc2OC)cc1	i
C[C@@H]1CN([C@H](C)CO)S(=O)(=O)c2ccc(C#Cc3ccncc3)cc2O[C@H]1CN(C)S(=O)(=O)c1ccc(F)cc1	i
Cc1ccc(C(=O)CC2(O)C(=O)N(CC(N)=O)c3ccccc32)s1 (centres undefined)	i
O=C(c1ccc([N+](=O)[O-])cc1)n1nc(-c2ccc(Cl)cc2)nc1NCc1ccco1	i
O=C(NCc1ccco1)c1cc(-c2cccnc2)nc2ccc(Br)cc12	i
COC(=O)C(O)(CC(=O)Nc1ccc(OC(F)(F)F)cc1)C(F)(F)F (centres undefined)	i
O=C(C[C@H]1C=C[C@@H](NC(=O)CN2CCOCC2)[C@H](CO)O1)NC1CCCCC1	i
Cc1ccc(-c2noc(CCC(=O)NCCCN3CCN(c4ccc(F)cc4)CC3)n2)cc1	i
N#C[C@H]1[C@@H](c2ccccc2)[C@@H](CO)N1C(=O)c1cccnc1	i
O=C(C[C@H]1C=C[C@@H](NS(=O)(=O)c2cccc(F)c2)[C@@H](CO)O1)N1CCCCC1	i
CCCc1cc(=O)[nH]c(SCC(=O)Nc2cc(Cl)ccc2Cl)n1	i

SMILES	ID4 SMM
C/C=C/c1cnc2c(c1)C(=O)N([C@@H](C)CO)C[C@@H](C)[C@@H](CN(C)Cc1ccncc1)O2	i
Cc1ccc(CSc2nc(C)c(Oc3cccc(C(F)(F)F)c3)c(=O)n2C)cc1	i
COc1ccc(C#Cc2cnc3c(c2)C(=O)N([C@H](C)CO)C[C@H](C)[C@H](CN(C)CC2CCOCC2)O3)cc1	i
CC(Oc1ccc(Cl)cc1Cl)C(=O)Nc1ccc2oc(-c3cccnc3)nc2c1 (centres undefined)	i
CNC[C@H]1Oc2ncc(-c3cccc(F)c3)cc2C(=O)N([C@@H](C)CO)C[C@H]1C	i
O=C(C[C@@H]1C[C@H]2c3cc(NC(=O)C4CCOCC4)ccc3O[C@H]2[C@H](CO)O1)NCc1ccc2c(c1)OCO2	i
NC(=O)CSc1nc2c(c(=O)n1Cc1ccccc1)C1(CCCC1)Cc1ccccc1-2	i
CCN1/C(=C2\C(=O)N=C(C)N2c2ccccc2)C=Cc2ccc(C)cc21	i
Cc1ccc(OCC(=O)Nc2ncccc2C)cc1	i
CN(C)S(=O)(=O)c1ccc(C(=O)NCc2cccnc2)cc1	i
Cc1cccc(-c2nnc(SCC(=O)Nc3cc([N+](=O)[O-])ccc3C)n2-c2ccccc2)c1	i
CCCCCCCCCCCC1C(=O)C(=O)CC(=O)C1=O	i
CCOC(=O)C(C(=O)Nc1ccc(Br)cc1)C1CCCCC1 (centres undefined)	i
Cc1ccc(NC(=O)CN(c2ccc(F)c(Cl)c2)S(C)(=O)=O)cc1	i
C/C=C/c1ccc([C@H]2[C@@H](CO)N(C(=O)c3cccnc3)[C@H]2C#N)cc1	i

SMILES	ID4 SMM
Cn1c(=O)c2c(nc(NCC3CCCO3)n2Cc2cccc(Br)c2)n(C)c1=O (centres undefined)	i
CCC(=O)N(C)C[C@H]1Oc2ncc(C#CCc3ccccc3)cc2C(=O)N([C@H](C)CO)C[C@@H]1C	i
CS(=O)(=O)N(CC(=O)Nc1ccc2c(c1)OCCO2)C1CCCCC1	i
COCCNC(=O)c1ccccc1-c1nc(-c2ccc(Cl)cc2)no1	i
CN(C)C(=O)C[C@H]1C=C[C@@H](NC(=O)C2CCC2)[C@@H](CO)O1	i
Cc1ccc2c(c1)c1nnc(SCCN3CCOCC3)nc1n2Cc1ccccc1	i
CCNC(=O)C[C@@H]1CC[C@@H](NC(=O)C2CC2)[C@@H](CO)O1	i
C[C@@H]1CN([C@@H](C)CO)S(=O)(=O)c2ccc(-c3ccccc3)cc2O[C@@H]1CN(C)Cc1ccccc1	i
CCOC(=O)c1cnc(Nc2nc3ccccc3s2)nc1CSc1nnc(C)s1	i
COc1ccc(NC(=O)CN(c2cc(Cl)cc(Cl)c2)S(C)(=O)=O)cc1OC	i
Cc1cc(OCC(=O)Nc2ccccc2C(N)=O)ccc1Br	i
COc1ccccc1NC(=O)Cn1cncc1-c1ccc([N+](=O)[O-])cc1	i
CCNC(=O)c1c(NC(=O)C(C)Oc2ccccc2F)sc2c1CCCC2 (centres undefined)	i
NNC(=O)CCn1c(-c2ccccc2)c(-c2ccccc2)c2ccccc21	i
O=C(NCC[C@@H]1CC[C@H](NC(=O)C2CCCC2)[C@@H](CO)O1)c1ccc(F)cc1	i

SMILES	ID4 SMM
Cc1ccccc1-c1cnc2c(c1)C(=O)N([C@H](C)CO)C[C@H](C)[C@H](CN(C)Cc1cccnc1)O2	i
COc1cc(C2NC(=S)NC(C)=C2C(=O)Nc2ccccc2C)c(Br)cc1OCC(=O)O (centres undefined)	i
COc1cccc2cc(C(=O)C3C(=O)C(=O)N(CCN4CCOCC4)C3c3ccc(F)cc3)oc12 (centres undefined)	i
CCOC(=O)c1c(NC(=O)CSc2nnc3ccc4ccccc4n23)sc(C)c1C	i
CC(C)C#Cc1ccc2c(c1)O[C@@H](CN(C)C)[C@H](C)CN([C@@H](C)CO)S2(=O)=O	i
CC(C)(C)c1ccc(OCC(=O)Nc2ccccc2-c2nc3ccccc3s2)cc1	i
OC(COc1ccc2ccccc2c1Br)Cn1cnc(-c2ccccc2)c1 (centres undefined)	i
CC(C)Cc1ccc(S(=O)(=O)N2c3cc(F)ccc3CCC2C)cc1 (centres undefined)	i
CCCC#Cc1cnc2c(c1)C(=O)N([C@H](C)CO)C[C@H](C)[C@@H](CN(C)Cc1ccccc1)O2	i
C[C@@H]1CN([C@@H](C)CO)C(=O)c2cc(-c3cccc(F)c3)cnc2O[C@@H]1CN(C)Cc1ccccn1	i
c1cc(-c2nc(-c3ccc4c(c3)OCCCO4)cs2)ccc1-c1csnn1	i
Cc1ccc(CN(C)C[C@@H]2OCc3cn(nn3)CCCC(=O)N([C@H](C)CO)C[C@H]2C)cc1	i
O=C(CSc1n[nH]c(-c2ccc(Cl)cc2Cl)n1)Nc1ccc(F)cc1	i
Nc1cc(=O)[nH]c(SCC(=O)N2CCN(c3ccccc3)CC2)n1	i
CC(C)Oc1ccc(NC(=O)CCN2C(=O)c3ccccc3C2=O)cc1	i

smiles | ID4 SMM
Cc1cc(C)cc(N(C(C)C(=O)Nc2cccc(Br)c2)S(C)(=O)=O)c1 (centres undefined) | i
COC(=O)C1=C(C)Nc2ncnn2C1c1ccccc1[N+](=O)[O-] (centres undefined) | i
N#Cc1cnc(SCC(=O)Nc2ccccc2F)nc1N | i
Cc1onc(NC(=O)NC(=O)c2ccccc2F)c1Br | i
O=c1occ(CO)c(O)c1CN1CCc2ccccc2C1 | i
COc1ccccc1CC(=O)Nc1ccc(-c2nnc(-c3ccc(C)cc3)o2)cc1 | i
O=C(CSc1nc2ccccc2[nH]1)Nc1cccc(Cl)c1Cl | i
CC(C)NC(=O)N(C)C[C@@H]1OCc2ccccc2-c2ccccc2C(=O)N([C@H](C)CO)C[C@H]1C | i
O=C(C[C@H]1CC[C@@H](NC(=O)Cc2ccccn2)[C@@H](CO)O1)NCCc1ccccc1 | i
Cc1ccc(-c2ccc3c(c2)O[C@@H](CN(C)CC2CC2)[C@@H](C)CN([C@@H](C)CO)S3(=O)=O)cc1 | i
COC(=O)c1ccc(-n2nnnc2SCC(=O)Nc2ccccc2)cc1 | i
O=C(CSc1nnc(-c2ccco2)n1-c1ccccc1)N1CCc2ccccc21 | i

smiles | ID4 SMM
Cc1c(Br)c(C(F)(F)F)nn1CC(=O)Nc1cc(Oc2cccnc2)cc([N+](=O)[O-])c1 | i
C[C@@H]1CN([C@H](C)CO)S(=O)(=O)c2ccc(-c3ccc(C#N)cc3)cc2O[C@H]1CN(C)Cc1cccc(F)c1 | i
C[C@H]1CN([C@@H](C)CO)S(=O)(=O)c2ccc(-c3cccc(C#N)c3)cc2O[C@@H]1CN(C)Cc1ccccn1 | i
COc1cc(N)c(Cl)cc1C(=O)OCCCN1CCCCC1 | i
C[C@@H]1CN([C@H](C)CO)C(=O)c2cc(-c3cccnc3)cnc2O[C@@H]1CN(C)Cc1ccccc1 | i
Cc1ccc(-c2ccc3c(c2)O[C@@H](CN(C)C(=O)NC(C)C)[C@H](C)CN([C@H](C)CO)S3(=O)=O)cc1 | i
Cc1cc(N)n(-c2ccc(Oc3ccccc3)c(S(=O)(=O)O)c2)n1 | i
Cc1ccc(NC(=O)CSc2nc3ccccc3s2)cc1C | i
Cc1ccc(-c2cc(C(F)F)n3ncc(C(=O)NCCCN4CCOCC4)c3n2)cc1 | i
CC(=O)CC(c1ccccc1)c1c(O)c2ccccc2oc1=O (centres undefined) | i
C/C=C/c1cnc2c(c1)C(=O)N([C@@H](C)CO)C[C@H](C)[C@@H](CN(C)C(=O)C1CCC1)O2 | i
C[C@H]1CN([C@@H](C)CO)S(=O)(=O)c2ccc(C#Cc3ccccc3)cc2O[C@@H]1CN(C)S(=O)(=O)c1cn(C)cn1 | i

smiles | ID4 SMM
COc1ccc(NC(=O)CSc2nc3ccc([N+](=O)[O-])cc3[nH]2)cc1 | i
CCn1c2ccccc2c2cc(NC(=O)CCCN3C(=O)c4ccccc4C3=O)ccc21 | i
Cc1nn(CC(O)COc2ccc3ccccc3c2)c(C)c1Br (centres undefined) | i
CC(=O)c1cccc(N(CC(=O)Nc2c(C)cccc2C)S(C)(=O)=O)c1 | i
C[C@H](CO)N1C[C@H](C)[C@H](CN(C)Cc2ccc(F)cc2)Oc2ncc(-c3ccccc3F)cc2C1=O | i
Cc1ccc(-c2ccc(CCC(=O)O)n2-c2ccc(C(N)=O)cc2)cc1 | i
C[C@@H]1CN([C@@H](C)CO)C(=O)c2cc(-c3cccc(F)c3)cnc2O[C@H]1CN(C)C | i
Cc1cccc(-c2nc3cc(NC(=O)COc4ccccc4)ccc3o2)c1 | i
O=C(CSc1nnnn1-c1ccccc1)Nc1ccccc1C(=O)c1ccccc1 | i
Cc1ccc(NC(=O)CN(C)S(=O)(=O)c2ccc(F)cc2)c(C)c1 | i
CNCCC(Oc1ccc(C(F)(F)F)cc1)c1ccccc1 (centres undefined) | i
O=C(CCCN1C(=O)c2ccccc2C1=O)Nc1ccc(Br)cc1F | i
COC(=O)c1c(-c2snnc2C)n[nH]c1C | i
O=C(C[C@@H]1CC[C@@H](NC(=O)C2CCOCC2)[C@H](CO)O1)NCC1CCCCC1 | i
COc1ccc(-n2nc3cc(C)c(NC(=O)COc4ccc(Cl)cc4Cl)cc3n2)cc1 | i
